Screens: PubChem, several laboratories
LANA-H2A inh: blocks KSHV LANA binding to histone H2A/H2B. cell-free LANA-H2A/H2B peptide, fluorescence polarization. inhibition, % (test concentration not listed). 320,000 tested, 0.6% active. Q9QR71. AID 2629; in the data active means inhibition mostly above about 10%, no sharp cut-off; inactive means mostly below about 6.7%;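 further: stock transfer was 7.5 nL into about 10 µL; 0% = median of vehicle wells and 100% = median of positive control wells; one replicate is shown; the record names a cut of 25% in any replicate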
Target sequence (Q9QR71 whole entry, looked up): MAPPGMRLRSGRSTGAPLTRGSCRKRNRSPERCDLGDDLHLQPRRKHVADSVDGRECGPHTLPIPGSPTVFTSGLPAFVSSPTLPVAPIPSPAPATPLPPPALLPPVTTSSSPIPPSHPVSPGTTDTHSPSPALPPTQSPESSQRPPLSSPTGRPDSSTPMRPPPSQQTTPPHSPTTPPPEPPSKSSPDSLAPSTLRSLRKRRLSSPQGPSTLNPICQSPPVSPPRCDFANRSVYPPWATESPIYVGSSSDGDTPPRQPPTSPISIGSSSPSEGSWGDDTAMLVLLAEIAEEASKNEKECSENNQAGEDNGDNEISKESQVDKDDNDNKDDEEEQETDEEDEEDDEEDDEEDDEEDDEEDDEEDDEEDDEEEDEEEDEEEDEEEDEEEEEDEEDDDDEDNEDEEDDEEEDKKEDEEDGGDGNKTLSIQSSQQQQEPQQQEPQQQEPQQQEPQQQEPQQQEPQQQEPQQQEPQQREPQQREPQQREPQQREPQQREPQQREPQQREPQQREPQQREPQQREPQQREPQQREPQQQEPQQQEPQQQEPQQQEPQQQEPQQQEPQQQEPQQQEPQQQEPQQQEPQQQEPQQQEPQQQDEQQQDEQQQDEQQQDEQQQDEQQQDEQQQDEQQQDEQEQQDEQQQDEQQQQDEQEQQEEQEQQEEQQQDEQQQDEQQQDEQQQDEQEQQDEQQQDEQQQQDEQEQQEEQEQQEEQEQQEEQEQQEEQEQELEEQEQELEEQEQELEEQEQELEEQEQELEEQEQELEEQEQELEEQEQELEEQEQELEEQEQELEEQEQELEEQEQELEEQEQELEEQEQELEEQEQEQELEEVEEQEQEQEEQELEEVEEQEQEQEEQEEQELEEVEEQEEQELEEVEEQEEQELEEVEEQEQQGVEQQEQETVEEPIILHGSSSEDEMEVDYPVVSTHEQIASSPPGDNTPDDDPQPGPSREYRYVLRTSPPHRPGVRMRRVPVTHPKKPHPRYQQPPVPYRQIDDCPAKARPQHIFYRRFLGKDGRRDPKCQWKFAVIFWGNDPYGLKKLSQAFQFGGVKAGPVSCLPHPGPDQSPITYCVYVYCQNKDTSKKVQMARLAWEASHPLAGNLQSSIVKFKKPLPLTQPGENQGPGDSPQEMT
Beta apoptosis: blocks beta cell apoptosis | 300,000 tested, 0.8% active | INS-1E cytokine-induced death, ATP luminescence, 48 h; percent of positive-control rescue, neutral wells zero | protection from apoptosis, % (test concentration not listed);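 active means all replicates at 75% or more, or half of them and the mean; inconclusive means half reach 75% but not the mean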;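 further: 0% = cytokine-treated negative control wells and 100% = positive control rescue; higher means more ATP so stronger rescue from cytokine killing; wells of about 40 µL received 100 nL stock; the first replicate is given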
T cruzi inh: blocks replication of Trypanosoma cruzi | T. cruzi beta-gal in NIH3T3, luminescence, 90 h | inhibition, % (no concentration beside the values) | 300,000 tested, 1.4% active | AID 1885;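 active means mean inhibition across valid replicates above about 55%, limit read from the data; inconclusive means mean below that limit but half or more replicates reach it; inactive means mean below it, under half of replicates reach it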;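 further: signal also drops with host cell toxicity which is not excluded here; 0% = plate median of DMSO wells and 100% = zero luminescence signal; higher percent means less beta-gal luminescence so fewer parasites; stock transfer was 50 nL into about 50 µL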
Bfl-1 A1 inh: inhibitors of the anti-apoptotic protein A1, read as caspase activation; 330,000 tested, 0.066% active; caspase activation, % (test concentration not listed); AID 2462; MEF A1-2A-BIM cells, Caspase-Glo 3/7 luminescence, 3 h; percent of clofoctol response, vehicle zero;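 active means over half of replicate activation scores above 10%, or exactly half above 10 with the replicate mean above 10; inconclusive means replicate mean below 10 yet half the replicates above 10; inactive means over half of replicates below 10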;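 further: wells of about 30 µL received 50 nL stock; many hits fall short of the cut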
Calb FLC: C. albicans growth modulation with fluconazole. C. albicans CaCi-2 (fluconazole-resistant clinical isolate) + fluconazole, Alamar Blue growth, 48 h. growth inhibition, % (concentration not given with the values). 300,000 tested, 0.57% active. AID 1979;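 active means most replicates above 75%; inconclusive means exactly half above 75%; inactive means most below 75%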;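 further: all wells also contain fluconazole at 8 µg/ml as a sub-toxic cotreatment; 0% = median of DMSO wells and 100% = median of geldanamycin control wells; wells of about 8 µL received 7.5 nL stock; the first replicate is given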
Beta2AR agonist: agonists of human beta-2 adrenergic receptor inducing internalization. Am2.2-beta2AR cells, FAP receptor internalization, flow cytometry; reference of the scale not given here. response, % (concentration not given with the values). 340,000 tested, 0.43% active;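 active means response above a set limit, near 3 SD of response in nonfluorescent compounds, cut at about 42% in these data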;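 further: stock transfer was 100 nL into about 11 µL; a reference agonist was the positive control; negative values mostly stem from fluorescent compounds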
RanGTP-Imp inh: disruptors of Ran-importin-beta complex formation – biochemical, FRET, CFP-Ran, YFP-importin-beta, homogeneous, primary screen. 300,000 tested, 1.1% active. AID 2216. inhibition, % (test concentration not listed). cell-free CFP-Ran/YFP-importin-beta FRET ratio;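 active means most replicates above 15%; inconclusive means exactly half above 15%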;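 further: 0% = DMSO wells and 100% = Ran loaded with GDP instead of GTP; wells of about 40 µL received 100 nL stock; the first replicate is given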
UCH37 DUB inh: inhibitors of human deubiquitinating enzyme UCH37. 330,000 tested, 0.33% active. inhibition, % (test concentration not listed). Q9Y5K5. purified proteasome/UCH37, Ub-AMC cleavage fluorescence;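 active means mean of two replicates above 20%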;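 further: 0% = compound-free wells with enzyme and 100% = wells lacking proteasome; stock transfer was 100 nL into about 20 µL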
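Test system – human UCH37 enzyme supplied as purified proteasome complex · Incubation – 30 min preincubation with enzyme, 25 min cleavage at room temperature · Detection – AMC fluorescence from Ub-AMC cleavage, excitation 355 nm, emission 460 nm · Benchmarks – no-proteasome wells (full inhibition) and compound-free wells (no inhibition)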
* hit, by the source's call; i = inactive; u = inconclusive; x = not tested or not shown.

cpd	canonical_smiles	LANA-H2A inh	Beta apoptosis	T cruzi inh	Bfl-1 A1 inh
1	COc1ccc(CCC(=O)NC2CCCc3ccccc32)cc1OC (stereo not given)	2.1	x	-6	1.7
2	OCCC1CN(Cc2ccc(Oc3ncccn3)cc2)CCN1C1CCCCC1 (stereo not given)	1.3	-2	-4	0.5
3	COc1cc(NC(=O)c2sc(C)nc2C)c(OC)cc1NC(=O)c1ccccc1	-3.1	0	19	-0.9
4	Cc1cc(C)nc(N2CCCC(C(=O)Nc3ccc4c(c3)OCCO4)C2)n1 (stereo not given)	1.8	-1	15	1.2
5	C/C=C/Cn1c(Br)nc2c1c(=O)[nH]c(=O)n2C	-3.9	-3	-5	-0.1
6	CCC(C)[C@H](NC(=O)Nc1ccc2c(c1)OCCO2)C(=O)OC (stereo not given in full)	1.2	-6	-20	0.5
7	Cn1cc(CN(CCCN2CCOCC2)C(=S)Nc2cccc(Cl)c2)c2ccccc21	-4.8	-5	23	0.5
8	COc1ccc(-n2c(C)cc(C(=O)COC(=O)c3cc(OC)c(OC)cc3NC(=O)c3cccs3)c2C)cc1	10	1	4	-0.9
9	COCCNC(=O)C1(S(=O)(=O)c2ccccc2)CC=CC1	1.2	1	-13	1.0
10	O=C(CS(=O)(=O)c1cn(CC(=O)N2CCOCC2)c2ccccc12)Nc1ccccc1	-1.7	-7	-29	0.3
11	O=C(c1cc(C2CC2)on1)N1CCCC(N2CCN(c3ccc(F)cc3)CC2)C1 (stereo not given)	13*	3	-14	-0.5
12	CC(=O)NS(=O)(=O)c1ccc(NC(=O)NC2CCCCC2)cc1	0.2	-6	-17	-1.2

cpd	Calb FLC	Beta2AR agonist	RanGTP-Imp inh	UCH37 DUB inh
1	11	-3	0.9	1.0
2	10	-8	-0.1	-0.2
3	13	28	0.5	-3.9
4	12	0	-8.0	0.3
5	-11	7	-0.1	3.7
6	-24	1	4.7	5.0
7	3	10	2.5	x
8	-3	9	-0.1	-71
9	-11	4	11	3.0
10	-15	9	4.7	2.5
11	32	-5	-4.9	7.2
12	1	-2	-1.7	3.8

Excerpt, compounds 6–11
cpd	canonical_smiles	LANA-H2A inh	Beta apoptosis	T cruzi inh	Bfl-1 A1 inh
6	CCC(C)[C@H](NC(=O)Nc1ccc2c(c1)OCCO2)C(=O)OC (stereo not given in full)	1.2	-6	-20	0.5
7	Cn1cc(CN(CCCN2CCOCC2)C(=S)Nc2cccc(Cl)c2)c2ccccc21	-4.8	-5	23	0.5
8	COc1ccc(-n2c(C)cc(C(=O)COC(=O)c3cc(OC)c(OC)cc3NC(=O)c3cccs3)c2C)cc1	10	1	4	-0.9
9	COCCNC(=O)C1(S(=O)(=O)c2ccccc2)CC=CC1	1.2	1	-13	1.0
10	O=C(CS(=O)(=O)c1cn(CC(=O)N2CCOCC2)c2ccccc12)Nc1ccccc1	-1.7	-7	-29	0.3
11	O=C(c1cc(C2CC2)on1)N1CCCC(N2CCN(c3ccc(F)cc3)CC2)C1 (stereo not given)	13*	3	-14	-0.5

cpd	Calb FLC	Beta2AR agonist	RanGTP-Imp inh	UCH37 DUB inh
6	-24	1	4.7	5.0
7	3	10	2.5	x
8	-3	9	-0.1	-71
9	-11	4	11	3.0
10	-15	9	4.7	2.5
11	32	-5	-4.9	7.2

Going on with the list.
cpd	canonical_smiles	LANA-H2A inh	Beta apoptosis	T cruzi inh	Bfl-1 A1 inh
13	CCCn1nc(C(=O)NNC(=O)C2CSC3(C)CCC(=O)N23)c2ccccc2c1=O (stereo not given)	5.8	x	-8	0.1
14	Cc1ccc(CN2C(=O)CCC2C(=O)NCc2ccc3c(c2)OCO3)cc1 (stereo not given)	0.4	-9	-1	0.3
15	O=C1c2ccc(-c3ccc4c(c3)C(=O)N(CCO)C4=O)cc2C(=O)N1CCO	2.5	3	-7	0.3
16	COc1ccc(CC(=O)Nc2ccc(-c3csc(C)n3)cc2)cc1	3.6	0	34	-0.2
17	O=C(CCS(=O)(=O)c1ccccc1)Nc1ccc(N2CCOCC2)cc1	-4.6	2	-4	-0.3
18	Cc1ccc(NC(=O)CSc2nc(=O)cc(N)n2-c2ccccc2)cc1	-4.7	-9	-11	-0.5
19	O=C(COC(=O)c1ccc(Br)o1)NCC1CCCCC1	1.9	2	x	-0.9
20	C=CCNC(=S)N1CCC(C(N)=O)CC1	0.9	-4	-6	0.5
21	CC1CN(Cc2cc(=O)oc3cc(O)ccc23)CC(C)O1 (stereo not given)	3.4	5	-3	-0.8
22	COc1ccc(C2c3c(oc4ccccc4c3=O)C(=O)N2Cc2ccncc2)cc1OC (stereo not given)	3.0	-6	-6	-0.5
23	CC(C)(C)c1ccc(Oc2ccc(NC(=O)c3ccccc3C(=O)O)cn2)cc1	3.7	1	7	-0.3
24	Cn1cnc(S(=O)(=O)Nc2ccc(C(F)(F)F)cc2)c1	-1.7	x	-12	1.4

cpd	Calb FLC	Beta2AR agonist	RanGTP-Imp inh	UCH37 DUB inh
13	-1	2	-2.9	0.9
14	-10	-3	5.7	-0.4
15	2	-7	-6.2	-122
16	1	8	1.5	-1.6
17	16	1	0.7	2.7
18	14	-2	2.6	-2.3
19	x	7	x	0.8
20	-9	8	-1.4	-3.1
21	-2	-6	19*	i
22	24	x	-3.7	-0.8
23	-20	7	1.1	5.1
24	-2	5	-3.5	3.0

Continued:
cpd	canonical_smiles	LANA-H2A inh	Beta apoptosis	T cruzi inh	Bfl-1 A1 inh
25	C=CCN1C(=O)C(CC(=O)NCC)SC1=Nc1ccc(S(N)(=O)=O)cc1 (stereo not given)	-0.4	-4	-2	-0.5
26	CC(C)NC(=O)Nc1ccc(Br)cc1Cl	-0.9	3	0	0.4
27	CCNc1nc(Oc2ccccc2)nc(OC(C)C(=O)OCC)n1 (stereo not given)	3.2	3	9	0.1
28	O=C(Nc1sc2c(c1C(=O)O)CCC2)c1ccccc1Cl	3.2	-3	5	-2.8
29	O=C(CN1CCCCCC1)N/N=C/c1cccs1	2.0	-3	-11	0.0
30	COc1ccc(-n2nc(C(=O)NCC(=O)NCCCN3CCCCCC3)c3ccccc3c2=O)cc1Cl	-0.2	-1	2	0.2
31	COCc1ccc(CN2CCC(n3nccc3NC(=O)C(OC)c3ccccc3)CC2)o1 (stereo not given)	-1.9	-1	-6	-2.0
32	COc1cccc2c(=O)n(CC(=O)N3CCN(c4ccccc4)CC3)ccc12	-2.0	-8	0	x
33	CCOC(=O)C1=C(CC)Nc2ccccc2N=C1NC(=O)CCNC(C)=O	1.9	-7	10	0.0
34	COc1ccc(NC(=O)CN(C)C(=O)c2ccc(S(=O)(=O)Nc3ccccc3F)cc2)cc1	5.1	x	-16	1.0
35	Cc1ccc(C(=O)NC(=S)Nc2cccc(NC(=O)c3ccccc3)c2)cc1[N+](=O)[O-]	-1.7	-6	-9	0.6
36	Cc1nn(Cc2cccc(C(=O)NC(C)c3ccc(C(C)(C)C)cc3)c2)c(C)c1[N+](=O)[O-] (stereo not given)	5.7	9	35	0.7

cpd	Calb FLC	Beta2AR agonist	RanGTP-Imp inh	UCH37 DUB inh
25	9	6	3.4	0.3
26	-5	-11	0.7	3.1
27	0	10	1.5	3.1
28	36	11	2.5	8.2
29	5	1	0.7	x
30	7	2	-2.1	1.8
31	-9	-7	5.3	2.1
32	1	-3	-2.5	3.0
33	4	9	3.1	2.1
34	-1	8	4.1	0.3
35	3	9	0.9	5.5
36	-36	-11	1.8	5.4

The listing continues.
cpd	canonical_smiles	LANA-H2A inh	Beta apoptosis	T cruzi inh	Bfl-1 A1 inh
37	CCN1CCc2c(sc(NC(=O)c3ccc(S(=O)(=O)N4CCOCC4)cc3)c2C(N)=O)C1	-1.3	-10	8	-1.4
38	CNc1nc(-c2ccccc2)cc(-c2ccccc2)n1	-2.8	-3	-3	0.1
39	O=C(Nc1cccc([N+](=O)[O-])c1)c1ccc(N2CCCC2=O)cc1	2.9	-5	-8	-1.5
40	O=C(CCS(=O)(=O)c1ccc(F)cc1)N1CCN(c2ccccc2)CC1	-3.5	x	-15	-0.3
41	Cc1ccc(Nc2c(-c3ccco3)nc3nc(C)cc(C)n23)cc1	21*	0	3	-1.9
42	CC(C)c1ccc(NC(=O)CC2Oc3ccccc3NC2=O)cc1 (stereo not given)	1.9	-3	-3	1.3
43	O=c1nccc(Nc2ccccc2)[nH]1	-3.7	-2	12	0.4
44	CCN(CC)C(=O)C(=O)c1c(-c2ccccc2)[nH]c2ccccc12	x	-6	-4	-0.1
45	O=C(COC(=O)c1ccc(Br)o1)Nc1ccc(S(=O)(=O)N2CCCC2)cc1	3.1	-8	-8	-0.2
46	COc1ccc(-c2c(C#Cc3ccsc3)c3cc(Br)ccc3n2C)cc1	-0.1	-3	x	0.1
47	CCN(CC)S(=O)(=O)c1cccc(-c2nnc(SCCOc3ccc(Cl)cc3)o2)c1	-8.0	x	16	-0.9
48	O=C(Nc1ccc(Cl)cc1)c1sccc1-n1cccc1	0.6	-1	13	1.3

cpd	Calb FLC	Beta2AR agonist	RanGTP-Imp inh	UCH37 DUB inh
37	5	20	u	6.8
38	5	-1	0.9	-99
39	-7	4	3.7	1.4
40	4	-4	2.6	2.3
41	-14	-5	-1.1	-4.3
42	21	6	3.8	5.0
43	-4	-1	0.2	8.3
44	-9	-5	2.3	10
45	-12	-1	1.6	1.9
46	x	1	x	-34
47	0	2	2.7	6.9
48	24	3	-4.2	-0.3

Continued:
cpd	canonical_smiles	LANA-H2A inh	Beta apoptosis	T cruzi inh	Bfl-1 A1 inh
49	O=C(O)CCC(=O)Nc1ccccc1N1CCOCC1	10	-6	4	0.2
50	OCc1ncc(-c2ccccc2)s1	-4.0	-9	-19	-0.6
51	COC(=O)Nc1cc(C(F)(F)F)ccc1N1CCN(c2ccccc2)CC1	-2.8	-2	34	0.8
52	C/C(=N/OC(=O)c1cccc(Cl)c1)c1nccs1	-7.2	-8	-17	0.8
53	Cc1ccc2nc(NC(=O)CSc3nncc(=O)n3N)sc2c1	0.2	-2	-18	-4.7
54	COc1ccc(OC)c(NC(=O)c2cccc(S(=O)(=O)N3CCN(C(C)=O)CC3)c2)c1	2.5	-5	-8	-0.5
55	Cc1ccc(S(=O)(=O)N2CCCCC2)cc1NC(=O)c1cc(=O)[nH]c2ccccc12	-1.4	-4	x	1.7
56	On1c(-c2ccccc2Cl)nc2ccccc21	2.2	-1	-12	0.8

cpd	Calb FLC	Beta2AR agonist	RanGTP-Imp inh	UCH37 DUB inh
49	1	-1	1.0	-0.3
50	4	3	4.6	2.4
51	-14	8	u	0.4
52	-2	1	3.6	x
53	-11	26	1.7	2.9
54	-8	5	u	4.4
55	x	-3	x	-8.1
56	10	9	-0.4	2.9

Taken from above:
LANA-H2A inh result of O=C(O)CCC(=O)Nc1ccccc1N1CCOCC1 is entered as 10
UCH37 DUB inh result of Cc1ccc(S(=O)(=O)N2CCCCC2)cc1NC(=O)c1cc(=O)[nH]c2ccccc12 is entered as -8.1
